LASV entry inh: Lassa virus entry inhibition; AID 540256; Potency, µM (top dose mostly 37.9 µM), for the others: top-dose activity change, negative = inhibition, actives largely listed as inhibitors; Lassa virus pseudotype entry inhibition, cell reporter; control for the full effect not named in the record; actives 1.2% (n = 300,000); active means well fitted inhibition curve with a large enough effect; inconclusive means small, poorly fitted or top-dose-only effect, or effect the other way; inactive means flat fitted curve, though single readings scatter; tested in HEK293 cells; further: on the % scale 0 is the no-effect control and ±100 the full control effect; nearly all actives have a fitted effect of over 50% in size; luciferase read-out
NS1 inh: blocks influenza NS1 protein function; S. cerevisiae slowed by influenza A NS1, growth recovery by OD600; Potency, µM (top dose mostly 46.1 µM), for inactives: at the highest dose activity, positive = more growth; actives 0.4% (n = 270,000); AID 2326; further: actives are rising curves; nearly all actives have a fitted effect of over 50% in size
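Growth recovery, yeast-based: influenza A NS1 expressed in S. cerevisiae causes slow growth, and suppressors are detected by OD600. The parent strain without NS1 is used as positive control.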
SARS PLP yeast: inhibitors of SARS-CoV papain-like protease in yeast. S. cerevisiae expressing SARS-CoV PLpro, growth rescue; control for the full effect not named in the record. Potency, µM (highest dose often 32.9 µM), for the others: at the top dose activity, positive = growth rescue. actives 0.19% (n = 330,000). AID 485353; further: 0% is about no effect; nearly all actives have a fitted effect of over 55% in size; growth read by luminescence after 48 h
MARV entry inh: inhibitors of Marburg virus binding or cell entry. Potency, µM (highest dose often 37.8 µM), without a hit: top-dose activity change, negative = inhibition, actives largely listed as inhibitors. Marburg virus pseudotyped entry inhibition, cell reporter; control for the full effect not named in the record; about a third of the inactives were read at about 46 µM. actives 1.8% (n = 300,000); active = well fitted inhibition curve with a large enough effect; inconclusive = small, poorly fitted or top-dose-only effect, or effect the other way; inactive = flat fitted curve, though single readings scatter; tested in HEK293 cells; about a fifth of its hits are not listed in these tables; further: on the % scale 0 is the no-effect control and ±100 the full control effect; luciferase read-out
Cruzain inh Det: blocks cruzain activity in presence of Triton detergent. purified cruzain, Z-FR-AMC fluorescence, 0.01% Triton. Potency, µM, inactives show max response, negative = inhibition, actives largely listed as inhibitors. P25779. actives 0.43% (n = 200,000); active means well fitted curve in the direction sought with a large enough effect; inconclusive means small, poorly fitted or top-dose-only effect, or another doubt; inactive means no such curve, though single readings can be large; an effect the other way counts as inactive or inconclusive;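 further: plate controls were neutral wells for no effect and buffer without enzyme for full effect; nearly all actives have a fitted effect of over 40% in size; top concentration of the series not given in the record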
Target sequence (P25779 123-467 limits assumed): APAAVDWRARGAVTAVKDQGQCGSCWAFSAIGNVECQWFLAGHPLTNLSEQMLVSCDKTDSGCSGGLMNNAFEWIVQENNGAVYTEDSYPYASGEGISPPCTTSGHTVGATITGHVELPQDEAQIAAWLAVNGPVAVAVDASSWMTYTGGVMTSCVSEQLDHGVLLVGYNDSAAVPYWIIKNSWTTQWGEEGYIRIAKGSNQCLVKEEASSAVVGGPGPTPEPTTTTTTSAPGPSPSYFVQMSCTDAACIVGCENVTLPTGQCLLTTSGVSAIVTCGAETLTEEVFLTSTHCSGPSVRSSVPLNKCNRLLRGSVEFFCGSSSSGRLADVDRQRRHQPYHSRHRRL
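Enzyme 1.5 nM, Z-FR-AMC 2 uM, NaOAc 100 mM pH 5.5, DTT 5 mM, Triton X-100 0.01%; 15 min RT compound preincubation; kinetic ex360/em450, 60 s delta.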
Cruzain noTriton: inhibitors of Trypanosoma cruzi cruzain without detergent. purified cruzain, Z-FR-AMC fluorescence, no detergent. P25779. actives 2.3% (n = 200,000). Potency, µM, for inactives: max response, negative = inhibition, hits mostly inhibitors. AID 1476; active means well fitted curve in the direction sought with a large enough effect; inconclusive means small, poorly fitted or top-dose-only effect, or another doubt; inactive means no such curve, though single readings can be large; an effect the other way counts as inactive or inconclusive;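 further: plate controls were enzyme without inhibitor for no effect and buffer without enzyme for full effect; nearly all actives have a fitted effect of over 40% in size; top concentration of the series not given in the record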
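Purified cruzain at 1.5 nM, pre-incubated 15 min with compound at room temperature in 100 mM sodium acetate pH 5.5, 5 mM DTT, 0.00005% Triton X-100. Reaction started with 2 uM Z-FR-AMC; AMC fluorescence increase over 60 s gives rate.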
RE007 growth inh: less growth of the S. pombe RE007 Vpr strain | actives 0.21% (n = 360,000) | AID 651644 | S. pombe RE007 Vpr strain, BacTiter-Glo ATP luminescence, 24 h; control for the full effect not named in the record | Potency, µM (highest dose often 92.2 µM), for the others: top-dose activity change, negative = less growth; active = well fitted falling curve with a large enough effect; inconclusive = small, poorly fitted or top-dose-only effect; inactive = no such curve, though single readings can be large or run the other way;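 further: on the % scale 0 is the no-effect control and ±100 the full control effect; nearly all actives have a fitted effect of over 50% in size; the assay follows cell death caused by Vpr and the record does not say whether a fall means rescue or toxicity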
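Fission yeast strain RE007, carrying one chromosomally integrated HIV-1 vpr copy, was seeded at OD 0.01 in PMG+AL medium with 23 nL pinned compound. After 24 h at 30 °C and 99% humidity, viability was read by BacTiter-Glo luminescence.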
StopGo reporter: FMDV 2A StopGo reporter, luciferase signal. Potency, µM (series often up to 57.9 µM), without a hit: top-dose signal change, negative = less light. human cells with a luciferase reporter of 2A StopGo recoding; control for the full effect not named in the record. actives 1.2% (n = 410,000); active = well fitted falling curve with a large enough effect; inconclusive = small, poorly fitted or top-dose-only effect; inactive = no such curve, though single readings can be large or run the other way; tested in HEK293T cells; further: on the % scale 0 is the no-effect control and ±100 the full control effect; nearly all actives have a fitted effect of over 45% in size; luciferase light after 4 h
* hit, by the source's call; ? = inconclusive; . = not tested or not shown; & = joins results of further samples; [ ] = remark or other dose. Unless noted, the call rests on the fitted dose curve; in most records, active means well fitted rising curve with a large enough effect; inconclusive means small, poorly fitted or top-dose-only effect; inactive means no such curve, though single readings can be large or run the other way. Potency means the concentration at half of the fitted maximal effect.

SMILES	LASV entry inh	NS1 inh	SARS PLP yeast	MARV entry inh	Cruzain inh Det	Cruzain noTriton	RE007 growth inh	StopGo reporter
COCCNC(=O)c1ccc(N2CC3CC(C2)c2cccc(=O)n2C3)c([N+](=O)[O-])c1 (stereo unspecified)	8%	.	3%	15%	.	.	-9%	0%
COc1ccccc1CN(C(=O)CNC(=O)c1ccco1)C(C(=O)NCC1CCCO1)c1ccc(OC)c(OC)c1 (stereo unspecified)	16%[46.1 µM]	13%	3%	13%[46.1 µM]	.	.	21%	-21%
Cc1ccc(OCC(=O)Nc2cccc(C(=O)OCc3cc(=O)n4c(C)csc4n3)c2)cc1	?	.	.	.	-4.8%	-3%	.	-19%
CCOC(=O)N1CCC(NC(=O)CS(=O)(=O)Cc2nc(-c3ccccc3Cl)oc2C)CC1	-9%[46.1 µM]	-6%	-1%	-2%[46.1 µM]	.	.	-9%	-25%
CC(=O)N1c2ccc(S(=O)(=O)NCC3CCC(C(=O)Nc4cccc(C)c4C)CC3)cc2CC1C (stereo unspecified)	1%[46.1 µM]	.	.	.	0.0%	?	.	?
CC(=O)NC(C)C12CC3CC(CC(CC(=O)O)(C3)C1)C2 (stereo unspecified)	0%	2%	-2%	10%	5.8%	-9%	1%	.
CC(C)=CC(=O)NCCc1ccccc1	58%[14.3 µM]	-17%	.	?	0.6%	3%	6%	2%
COc1ccc(S(=O)(=O)N2CCC(c3cc(-c4cccc5ccccc45)n[nH]3)CC2)cc1	-25%	?	-1%	?	3.9%	?	-9%	?
CCN1C(=NCC2CC2)N[C@@H](c2ccccc2)C(C(=O)OC)=C1C	.	-9%	-14%&0%	.	.	.	-8%	-14%
CC(=O)c1cccc(NC(=O)c2cccc(S(=O)(=O)N3CCOCC3)c2)c1	-10%	-4%	-1%	6%[46.1 µM]	.	.	18%	2%
O=C(CSCc1ccc(Cl)cc1)Nc1ccc(O)cc1C(=O)O	?	-9%	-6%	-10%	.	.	-20%	-4%
COC(=O)c1ccccc1NC(=O)c1cc[n+](C)cc1	-2%	.	.	3%[46.1 µM]	.	.	0%	7%
O=C(CCN1C(=O)C2C3C=CC(C3)C2C1=O)Nc1ccc(F)cc1 (stereo unspecified)	-15%	-20%	4%	-1%[46.1 µM]	4.8%	?	11%	-21%
Cc1ccc(S(=O)(=O)N(C)c2cc(S(=O)(=O)N3CCC(C)CC3)c(C)cc2C)cc1	?	11µM*	-6%	?	1.3%	-3%	-6%	?
Clc1cccc(Cl)c1-c1nnc2cccc(Cl)n12	-8%	2%	16%	-2%	1.8%	1%	-2%	7%
C#CCNC(=O)C1=C[C@@H](C2CC2)C[C@@H](OCCCCO)O1	.	1%	0%	.	.	.	-1%	10%
O=C(CNC(=O)c1sc2ccccc2c1Cl)NCc1cccc(C(F)(F)F)c1	-32%[46.1 µM]	.	-6%	?	.	.	-2%	9%
Cc1cc2c(OCC(O)CNC(C)(C)C)cccc2[nH]1 (stereo unspecified)	-1%	6%	17%	4%	6.6%	0%	-8%	-19%
CCC(CC)C(=O)OCc1cc(=O)n2nc(C3CC3)sc2n1	13%[46.1 µM]	.	.	.	-3.0%	-13%	.	47%[activator]
Cn1cnc2c(=O)[nH]cc([N+](=O)[O-])c21	.	3%	-4%	.	.	.	3%	-6%
CCCCSc1nc2[nH]ncc2c(=O)[nH]1	5%	6%	-1%	4%	-2.4%	-1%	1%	-14%
Cc1ccc(S(=O)(=O)NCCC(=O)NCc2ccc3c(c2)OCO3)cc1C	-6%	-9%	16µM*	3%[46.1 µM]	-1.9%	-2%	3%	5%
CCOC(=O)c1c(C)nc2c(c(SC)nn2-c2ccccc2)c1N	6%	0%	-4%	?	-12%	10%	-2%	-8%
Cc1ccc(NC=C(S(=O)(=O)c2ccccc2)S(=O)(=O)c2ccccc2)cc1	1%	3%	-17%	?	0.3%	-7%	-3%	14%
Cc1cc(C)cc(NC(=S)/C(=C(\[O-])c2ccc(Cl)s2)[n+]2cccc(C)c2)c1	8%	-5%	-1%	?	.	.	-21%	-13%
Cc1ccc(S(=O)(=O)NCCc2csc3nc(-c4ccccc4F)nn23)cc1C	?	.	.	.	-4.3%	-6%	.	75%[activator]
CCC(C(=O)NCCCN1CCN(C)CC1)n1nc(C)n2c(cc3occc32)c1=O (stereo unspecified)	16%[46.1 µM]	5%	-2%	15%[46.1 µM]	.	.	-8%	-5%
C[C@@H](C(=O)Nc1ccc2ccccc2c1)[C@H]1C[C@]1(C)[C@H](NC(=O)c1cccnc1)c1ccccc1	?	14µM*	1%	?	-2.5%&-7.6%	8%&5%	5%	?
CCCCCN(C(=O)NC(=O)Nc1ccccc1C)S(C)(=O)=O	28%	-3%	?	-1%	-1.1%	-8%	11%	.
CSc1ccc(CCNC(=O)c2ccc3c(c2)nc2n3CCC(C)C2)cc1 (stereo unspecified)	23%[46.1 µM]	.	.	.	3.4%	16%	.	?
O=C(COC(=O)c1ccc[nH]c1=O)NCC1CCCO1 (stereo unspecified)	6%	-3%	1%	-15%	-1.1%	5%	1%	-24%
CCOC(=O)c1csc(NC(=O)CSc2nnnn2-c2ccc(OCC)cc2)n1	-6%	19%	-3%	-12%&0%	2.0%	6%	3%	4%
Cn1nc(C(=O)OCC(=O)c2ccc(Cl)cc2)c2ccccc2c1=O	?	.	3%	-1%	.	.	11%	-24%
COCc1cc(C)nc(SCC(=O)Nc2cccc(C)c2)c1C#N	-4%	0%	12%	-22%[46.1 µM]	2.9%	?	0%	-14%
Nc1nnc(SCC(=O)OCC(=O)c2ccccc2)s1	22%[46.1 µM]	.	-1%	-9%[46.1 µM]	.	.	8%	3%
O=C(COc1ccc(Cl)cc1)NC1CC1	7%[46.1 µM]	10%	-1%	14%[46.1 µM]	.	.	-7%	11%
O=C1CCCC2=C1C(c1ccccc1)C1C(=O)c3ccccc3C1=N2 (stereo unspecified)	-18%	1%	29%	-2%	-7.3%	-14%	1%	-19%
CCC(CC)NC(=O)COC(=O)c1cccc(C)c1O	-2%	6%	-2%	-15%	-9.7%	-3%	6%	8%
COc1cccc(C(=O)N2CCN(S(C)(=O)=O)CC2)c1	6%	-1%	5%	6%	4.2%	7%	-3%	21%
O=[N+]([O-])c1ccc(C=NN=Cc2ccc([N+](=O)[O-])cc2)cc1	11%[46.1 µM]	.	.	?	.	.	-11%	6%
Cc1ccc(NC(=O)c2ccc(NC(=O)N3CCSc4ncccc43)cc2)c(C)c1	?	.	.	.	-4.3%	5%	.	-29%
O=C(CSc1ncc(CO)n1Cc1ccccc1)Nc1ccc(C(F)(F)F)cc1	-18%[46.1 µM]	.	.	.	-8.9%	8%	.	?
Cc1nc(N2CCN(c3ccccn3)CC2)c2c(C)c(C(=O)Nc3ccc(F)cc3Cl)sc2n1	.	-1%	5%	.	.	.	-11%	11µM*
CC1CN(c2nnc(NC(=O)c3ccccc3)s2)CC(C)O1 (stereo unspecified)	2%	.	-7%	?	.	.	3%	0%
CCCCN(C(=O)CCNC(=O)NC12CC3CC(CC(C3)C1)C2)c1c(N)n(CCCC)c(=O)[nH]c1=O	-2%[46.1 µM]	.	4%	-4%	.	.	-28%	-6%
COc1cc(OC)cc(C(=O)N[C@H](C(=O)NC23CC4CC(CC(C4)C2)C3)C(C)C)c1	-11%	-1%	-6%	-26%	0.4%	-3%	2%	-20%
COc1ccc(NC(=O)Cn2c(=O)n(Cc3ccco3)c(=O)c3cc(OC)c(OC)cc32)cc1	?	.	.	11%[46.1 µM]	-2.9%	-3%	.	-8%
O=C(CSc1nc(-c2ccccc2)[nH]c1-c1ccc(F)cc1)NC1CCCC1	?	.	.	?	-8.2%	-7%	.	-25%
COc1ccc(N2CC(C(=O)Nc3nnc(SCC(=O)NC(C)(C)C)s3)CC2=O)cc1 (stereo unspecified)	.	-4%	0%	.	.	.	-8%	-15%
COC(=O)c1ccccc1NC(=O)c1cnc(Nc2ccc(OC)cc2)c2ccccc12	-3%[46.1 µM]	.	.	?	-6.4%	-6%	.	-11%

Later entries.
SMILES	LASV entry inh	NS1 inh	SARS PLP yeast	MARV entry inh	Cruzain inh Det	Cruzain noTriton	RE007 growth inh	StopGo reporter
Cc1nn(C)cc1CNC(=O)/C=C/c1cnn(C)c1	2%	7%	6%	?	-0.4%	-8%	0%	-17%
COCCCNc1nc2cc(OC)c(OC)cc2c2nc(-c3ccccc3)nn12	.	0%	-1%	-1%[46.1 µM]	-2.3%	-2%	-8%	-27%&-27%
CCCCOc1nc2c(c(=O)n(C)c(=O)n2C)n1C	0%	-5%	9%	0%[46.1 µM]	.	.	0%	-2%
CSc1nc(C(C)C)ccc1CNC(=O)CC(C)c1ccccc1 (stereo unspecified)	-12%[46.1 µM]	-3%	-3%	?	.	.	4%	-12%
NC(=O)NC(CC(=O)N1CCc2ccccc2C1)c1ccc(Cl)cc1 (stereo unspecified)	-9%	10%	.	-14%[46.1 µM]	.	.	3%	-11%
CN1CCN(CCNC(=O)Cn2c(=O)c3cccn3c3ccc(F)cc32)CC1	.	7%	5%	.	.	.	1%	-9%
Cc1cccc(NC(=O)c2cc(Cl)nc3ccccc23)n1	1%	-7%	0%	?	.	.	-6%	-18%
Cc1coc2c1c(C)cc1oc(=O)c(CC(=O)NCCCCCC(=O)O)c(C)c12	7%[46.1 µM]	5%	2%	14%[46.1 µM]	.	.	8%	-3%
Cc1ccc(N(CC(=O)NCc2cccnc2)S(C)(=O)=O)cc1C	2%	5%	0%	?	5.3%	-4%	16%	4%
Cc1ccc(NC(=O)CC2Nc3ccccc3NC2=O)cc1C (stereo unspecified)	4%[46.1 µM]	.	.	-1%[46.1 µM]	-12%	0%	.	16%
CCOC(=O)c1cnn(-c2nc(C)cc(C)n2)c1N	12%	-6%	-6%	22%&22%	2.2%	1%	-18%	6%
CN(C)CCCN1C(=O)c2cccc3cccc(c23)C1=O	-18%	-12%	-1%	?	.	.	0%	-10%
